# EPAC1 ag val = human EPAC1 agonism, validation | actives 1% (n = 16,000) | EPAC1 Rap1b BODIPY-GDP exchange, fluorescence | O95398 | Potency, µM, without a hit: max response, positive = active, hits mostly activators | AID 1645883; active means well fitted activation curve with a large enough effect; inconclusive means small, poorly fitted or top-dose-only effect; inactive means no such curve, though single readings can be large or run the other way;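 further: nearly all actives have a fitted effect of over 70% in size; series mostly up to about 76 or 150 µM; scaled to a cAMP control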
# Target sequence (O95398 whole entry, looked up): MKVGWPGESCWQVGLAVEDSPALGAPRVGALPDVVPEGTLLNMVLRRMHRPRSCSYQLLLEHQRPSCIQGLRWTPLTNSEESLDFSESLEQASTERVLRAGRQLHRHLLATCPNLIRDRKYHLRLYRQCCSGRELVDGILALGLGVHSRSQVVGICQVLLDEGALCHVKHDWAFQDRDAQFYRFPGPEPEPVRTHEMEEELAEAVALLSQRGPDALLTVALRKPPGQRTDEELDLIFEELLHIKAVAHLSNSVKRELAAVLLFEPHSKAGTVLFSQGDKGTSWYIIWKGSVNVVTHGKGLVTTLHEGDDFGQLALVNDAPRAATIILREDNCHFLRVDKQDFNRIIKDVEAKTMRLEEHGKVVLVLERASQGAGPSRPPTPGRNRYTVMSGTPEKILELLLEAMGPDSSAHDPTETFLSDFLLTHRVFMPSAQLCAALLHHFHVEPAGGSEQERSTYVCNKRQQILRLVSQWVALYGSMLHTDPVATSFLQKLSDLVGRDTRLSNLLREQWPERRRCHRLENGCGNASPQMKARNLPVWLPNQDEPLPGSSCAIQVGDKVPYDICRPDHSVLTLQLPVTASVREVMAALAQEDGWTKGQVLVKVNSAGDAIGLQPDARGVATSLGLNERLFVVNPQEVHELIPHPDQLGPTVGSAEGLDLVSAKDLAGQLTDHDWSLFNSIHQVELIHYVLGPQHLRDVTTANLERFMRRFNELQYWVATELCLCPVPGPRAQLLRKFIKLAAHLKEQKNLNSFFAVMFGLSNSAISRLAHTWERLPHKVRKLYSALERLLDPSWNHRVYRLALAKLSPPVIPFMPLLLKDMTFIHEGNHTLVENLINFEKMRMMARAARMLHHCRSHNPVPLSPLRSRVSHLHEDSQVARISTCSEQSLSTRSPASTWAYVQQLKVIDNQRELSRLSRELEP
# * = called active by the depositor; ? = inconclusive; & = joins results of further samples; [ ] = another dose, or the depositor's remark. On the % scale 0 is the no-effect control and ±100 the full control effect; potency means the concentration at half of the fitted maximal effect. A portion of the library. The share of hits here may be higher or lower than overall.
molecule	EPAC1 ag val
C[C@@]12C(=O)OC(=O)[C@]1(C)C1CCC2O1	4%
CC1(C)[C@H]2CC[C@]1(C)[C@H](O)C2	18%
O=c1c(-c2ccccc2)nc2cncnc2n1Cc1ccc(F)cc1	-34%
C[C@@H]1C[C@H]2[C@@H]3CCC4=CC(=O)C=C[C@]4(C)[C@@]3(F)[C@@H](O)C[C@]2(C)[C@@]1(O)C(=O)COC(=O)c1cccc(S(=O)(=O)O)c1	8%
Cc1c(O)cc(O)c2c(=O)c(-c3ccc(O)cc3)coc12	29%
O=C(O)[C@@H]1C[C@H](CP(=O)(O)O)CCN1	-34%[inhibitor]
CC(O)CCCCn1c(=O)c2c(ncn2C)n(C)c1=O (stereo not drawn)	-25%
Cc1ccc2c(c1)CN(CCNC(=O)C(C)Oc1ccccc1)CC(C)O2 (stereo not drawn)	4%
O=P(O)(O)CP(=O)(O)O	0%
O=C(O)CCCCCCCCc1cn(CC2CCCCC2)nn1	25%
O=c1[nH]c(Cl)nc2c1ncn2C1OC(CO)C(O)C1O (stereo not drawn)	-27%
COc1ccccc1CN1CCC2(CC1)CCN(C(=O)c1c(C)noc1C)CC2	-41%[inhibitor]
CCc1cc2c(c(CC)n1)CCC(=O)N2Cc1ccc(-c2ccccc2-c2nn[nH]n2)cc1	-9%
CC1=CC2C(C(C)C)CCC(C)(O)C2CC1 (stereo not drawn)	-42%[inhibitor]
CN(CCO)C(=O)c1cn(C2CCN(Cc3ccc(C(F)(F)F)cc3)CC2)nn1	14%
N[C@@H](C(=O)O)[C@H](CC(=O)O)c1ccc(Cl)cc1	-12%
COc1ccc(C(=O)c2coc3ccc(O)cc23)cc1	-13%
COC(=O)[C@@H](NC(=O)C1CCCN(c2nc(C)c3ccc(C)cc3n2)C1)C(C)C (stereo partly drawn)	-13%
NCC1O[C@@H](OC2C(N)CC(N)C(O)C2O[C@@H]2OC(CO)C(O)C2O)C(N)C(O)C1O (stereo partly drawn)	?
CC(=O)N1CCN(C)CC1	-13%&-18%
CC(=O)C[C@H]1c2cc(C(F)(F)F)ccc2S(=O)(=O)N1C1CCCCC1	-22%
NC(N)=NN=C(/C=C/c1ccc([N+](=O)[O-])o1)/C=C/c1ccc([N+](=O)[O-])o1	4%
Nc1ccn([C@H]2CC[C@@H](CO)O2)c(=O)n1	-7%&-8%&-1%
FC(F)(F)C(Cl)Br (stereo not drawn)	-43%[inhibitor]
O=C(c1cccc(F)c1)N1CCC2(CC1)CN(Cc1ccccc1)C2	18%
COCC(=O)N1CCC[C@@]2(CCN(c3ccncc3)C2)C1	-61%[inhibitor]
Nc1nc2c([nH]c(=O)n2C2OC(CO)C(O)C2O)c(=O)[nH]1 (stereo not drawn)	20%
O=C(c1csnn1)N1CCC2(CCCN(c3ccc(-c4ccccc4)cc3)C2)CC1	?
COc1cc(-c2noc(C)c2/C=C/c2ccc(OC(C)=O)cc2)cc(OC)c1OC	13%
C[C@@H]1O[C@@H](OC[C@H]2O[C@@H](Oc3c(-c4ccc(OCCO)c(OCCO)c4)oc4cc(OCCO)cc(O)c4c3=O)[C@H](O)[C@@H](O)[C@@H]2O)[C@H](O)[C@H](O)[C@H]1O	10%
CC(C)(C)[C@H]1CCC(=O)N([C@H](CN=[N+]=[N-])Cc2ccccc2)CC1	-84%[inhibitor]
CCc1cc(C(=O)N2CCOc3ccc(CN4CCN(Cc5ccccn5)CC4)cc3C2)no1	-4%
C=C1C(=O)C23C(O)C1CCC2[C@]12COC3(O)C(O)C1C(C)(C)CC[C@H]2O (stereo partly drawn)	-116%[inhibitor]
Cc1ccc2nc(SCC(=O)NCC3Cc4cc(-c5ncccc5C)ccc4O3)[nH]c2c1 (stereo not drawn)	-2%
O=C(c1cccc(F)c1)N1CCC2(CCN(Cc3ccncc3)CC2)CC1	?
O=C(Oc1cccc2cccnc12)c1ccccc1	-1%
COc1cc(=O)n2c(c1C(=O)N(C)Cc1nonc1C)CCN(CC1CC=CCC1)CC2 (stereo not drawn)	18%
CCCN1CCC(=O)N(CCOc2ccccc2)CC1	?
CC[C@@H](C(=O)O)[C@@H]1O[C@@H]([C@@H](C)[C@H](O)[C@H](C)C(=O)[C@H](CC)[C@H]2O[C@]3(C=C[C@@H](O)[C@]4(CC[C@@](C)([C@H]5CC[C@](O)(CC)[C@H](C)O5)O4)O3)[C@H](C)C[C@@H]2C)[C@@H](C)C[C@@H]1C	-43%[inhibitor]
CC(C)SC(=N)N	-3%
OC[C@H]1O[C@@H](n2cnc3c(NCc4ccco4)ncnc32)[C@H](O)[C@@H]1O	1%&8%
COc1cc(CN2CCC3(CCC(CNC(=O)c4ccco4)O3)CC2)ccc1O (stereo not drawn)	-16%
N#Cc1cccc(NC(=O)N2CCC3(CC2)CCN(C(=O)c2cnccn2)CC3)c1	9%
Nc1nc(N)c(-c2ccccc2)s1	-11%
O=C(c1csnn1)N1CCC2(CCCN(Cc3cc(C(F)(F)F)cc(C(F)(F)F)c3)C2)CC1	-67%[inhibitor]
COc1ccc(Oc2ncc3ncc(=O)n(Cc4cccc(OC)c4)c3n2)cc1	-19%
C=C[C@@H]1c2ccccc2N(S(=O)(=O)c2ccc(C)cc2)[C@H](c2ccccc2C(F)(F)F)C1(C#N)C#N	?
CC(NC(=O)c1cc(F)ccc1F)c1nnc2n1CCN(Cc1cccs1)CC2 (stereo not drawn)	-6%
CC(=O)Oc1cc2c(c(C)c1OC(C)=O)CC=C1[C@]3(C)CC[C@]4(C)CC[C@@](C)(C(=O)O)CC4[C@]3(C)CC[C@]12C (stereo partly drawn)	?
O=S1(=O)CCOC[C@H](c2ccccc2)N1Cc1ccc(F)cc1	?

# Exported as labelled records: part of the list above.
> C=C[C@@H]1c2ccccc2N(S(=O)(=O)c2ccc(C)cc2)[C@H](c2ccccc2C(F)(F)F)C1(C#N)C#N
  EPAC1 ag val: ?

> CC(NC(=O)c1cc(F)ccc1F)c1nnc2n1CCN(Cc1cccs1)CC2 (stereo not drawn)
  EPAC1 ag val: -6%

# (more compounds)
molecule	EPAC1 ag val
CSc1ccccc1N1CCN(CCCCCC(=O)NC2CCCc3ccccc32)CC1 (stereo not drawn)	4%
Oc1ccccc1O	-1%
Nc1nc(=O)n(C2OC(CO)C(O)C2O)cc1Cl (stereo not drawn)	-9%
Nc1ccc(S(=O)(=O)Nc2cnc3ccccc3n2)cc1	?
CN(C)CCN(Cc1cccs1)c1ccccn1	-9%&-19%
CNCC(O)c1ccc(OC(=O)C(C)(C)C)c(OC(=O)C(C)(C)C)c1 (stereo not drawn)	2%
COc1ccc(Oc2ncc3nc(-c4ccc(F)cc4)c(=O)n(CCC#N)c3n2)cc1	-29%
NC1(C(=O)O)C[C@@H](C(=O)O)[C@H](C(=O)O)C1	-17%&8%&4%
NCCCC(N)(C(=O)O)C(F)F (stereo not drawn)	-2%&2%
Cc1ncc2c(c1CNC(=O)/C=C/c1cccs1)CCN(C(=O)c1cc(C(C)C)on1)C2	-7%
COc1cccc(Nc2ncc3nc(CCc4ccccc4)c(=O)n(C)c3n2)c1	-1%
OCCN1CCN(Cc2ccc3c(c2)CN(Cc2cc4ccccc4o2)CCO3)CC1	-12%
COc1ccc(CNC(=O)[C@@H]2CC=C[C@@H]3CCN(C4CC4)C(=O)[C@@H]32)cc1	-5%
c1nc(NC2CC2)c2cc(-c3ccoc3)ccc2n1	26%
COc1cccc(NC(=O)/C=C\c2ccc(Cl)cc2)c1	?
CC(=O)OCCC(C)CCC=C(C)C (stereo not drawn)	-16%
CCCc1nc(C(C)(C)O)c(C(=O)OCc2oc(=O)oc2C)n1Cc1ccc(-c2ccccc2-c2nn[nH]n2)cc1	-19%
CC1=C(C(N)=O)N2C(=O)[C@@H](NC(=O)Cc3ccccc3)C2SC1 (stereo partly drawn)	?
COc1ccc(-n2c(=O)c(C)nc3cnc(N(C)C)nc32)cc1	-57%[inhibitor]
CCN1CCCC1CNC(=O)c1cnn(-c2nccc(-c3cc4ccccc4o3)n2)c1C (stereo not drawn)	3%
COc1cc(=O)n2c(c1C(=O)NCc1ccco1)CCN(C(=O)c1ccccc1-c1ncc[nH]1)CC2	-18%
Cc1cccc2cc(CN(C(=O)c3ccc(C(F)(F)F)cc3)C3CC3)c(N3CCC(O)CC3)nc12	-2%
N=C(N)c1ccc(OCCCOc2ccc(C(=N)N)cc2Br)c(Br)c1	-1%
N[C@@H](Cc1cc(I)c(Oc2cc(I)c(O)c(I)c2)c(I)c1)C(=O)O	8%&-21%
COc1cc(-c2noc(C)c2C#Cc2ccsc2)cc(OC)c1OC	?
Cc1occc1C(=O)Nc1cccc(-c2nc(CNC(=O)c3ccc4ccccc4n3)c(C)o2)c1	11%
C=C(NC(=O)C(=C)NC(=O)c1csc(C2=NC3c4csc(n4)C4NC(=O)c5csc(n5)C(C(C)(O)C(C)O)NC(=O)C5CSC(=N5)C(=CC)NC(=O)C(C(C)O)NC(=O)c5csc(n5)C3(CC2)NC(=O)C(C)NC(=O)C(=C)NC(=O)C(C)NC(=O)C(C(C)CC)NC2C=Cc3c(C(C)O)cc(nc3C2O)C(=O)OC4C)n1)C(N)=O (stereo not drawn)	-78%[inhibitor]
Cc1ccc(SC[C@H](Cc2ccccc2)N2CC[C@@H](C)CCC2=O)cc1	-25%
CCCCCCCCN1[C@@H](CC(C)=O)c2ccc(/C=C/C(C)=O)cc2S1(=O)=O	-21%
Cc1cccc(CNC(=O)c2cnn(-c3nccc(-c4cccs4)n3)c2C2CC2)n1	-16%
O=C1c2ccccc2-c2n[nH]c3cccc1c23	24%&14%&-1%&-4%&-8%
O=C(NCc1ccccn1)c1cnn(-c2nccc(-c3cc4ccccc4o3)n2)c1C1CC1	1%
COc1ccc(NC(=O)N2CC3(CCN(C(=O)c4ccc(OC)cc4)CC3)C2)cc1	29%
O=C(c1ccco1)N1CCC2(CC1)CN(c1ncccn1)C2	-55%[inhibitor]
COc1cccc(-c2nc3cc4c(cc3cc2CN(C(=O)c2csc(C)n2)C2CC2)CCC4)c1OC	0%
O=S1(=O)CCO[C@H]2CCCC[C@@H]2N1Cc1cccc(F)c1	-8%
NC(=O)OCC(COC(N)=O)c1ccccc1	-3%&-16%&2%
C[C@]12CCC3c4ccc(O)cc4CCC3C1CCC2=O (stereo partly drawn)	-4%
O=C1CCN(Cc2cccnc2)CCN1[C@H](CO)Cc1ccccc1	?
C=CCN1c2ccccc2C(=O)CS1(=O)=O	4%
CC[N+]1(CC(=O)c2ccc(Br)cc2)CCCCC1	-30%
CCC(C)C(=O)O[C@H]1C[C@@H](C)C=C2C=C[C@H](C)[C@H](CC[C@@H]3C[C@@H](O)CC(=O)O3)C21 (stereo partly drawn)	-20%
CN1CC(=O)NC1=N	11%
C=CCc1cccc(C=NNC(=O)CN2CCN(Cc3ccccc3)CC2)c1O	-2%
CCCc1nc(C)c2c(=O)[nH]c(-c3cc(S(=O)(=O)N4CCN(CC)CC4)ccc3OCC)nn12	13%
CS(=O)(=O)Nc1cccc(-c2ccc3ncnc(NCc4cccnc4)c3c2)c1	2%
Cn1cc(-c2nc3cncnc3n(-c3ccccc3)c2=O)c2ccccc21	-219%[inhibitor]
CC(=O)Oc1cc(C(C)C)c(OCCN(C)C)cc1C	-2%&10%
C[C@]12CC[C@@H]3c4ccc(O)cc4CC[C@H]3[C@@H]1CCC2=O	-3%&-14%&8%
Cc1ccccc1-c1nc(NCCN2CCOCC2)c2ccccc2n1	10%

# (next part)
molecule	EPAC1 ag val
c1ccc2c(N3CCNCC3)nc(-c3ccc4c(c3)OCO4)nc2c1	12%
O=c1c(-c2cc(F)cc(F)c2)nc2cncnc2n1-c1ccccc1	-40%[inhibitor]
C=C1CC/C=C(\C)CC[C@@H]2[C@@H]1CC2(C)C	-7%
COc1cccc(Nc2ncc3nc(-c4ccc(Cl)cc4)c(=O)n(CCC#N)c3n2)c1	-195%[inhibitor]
O=c1c(CCc2ccccc2)nc2cncnc2n1Cc1ccc(F)cc1	-1%
O=C(c1csnn1)N1CCC2(CCCN(c3ccncc3)C2)CC1	16%
Cc1ccc(CN2C[C@H](Sc3ccccn3)C[C@H]2C(=O)Nc2ccc3sc(C)nc3c2)c(C)c1	1%
O=C(c1ccncc1)N1CCC2(CCCN(c3cccc(-c4ccccc4)c3)C2)CC1	0%
c1coc(-c2ccccc2CN2CCOc3ccc(CN4CCOCC4)cc3C2)c1	-1%
CC(C)Cn1cnc2c(N)nc3ccccc3c21	17%
C[C@H](Cc1ccccc1)Nc1ncnc2c1ncn2[C@@H]1O[C@H](CO)[C@@H](O)[C@H]1O	5%&-5%
O=Cc1ccc(O)cc1	-9%
CS(=O)(=O)N1CCC[C@@]2(CCN(Cc3ccccc3)C2)C1	-87%[inhibitor]
Nc1nc2c(nc(Br)n2C2OC3COP(=O)(O)O[C@@H]3C2O)c(=O)[nH]1 (stereo partly drawn)	3%
O=C1CCN(Cc2ccc(O)cc2)CCN1[C@H](CO)Cc1ccccc1	-12%
COc1ccc(CNc2ncnc3ccc(-c4ccc5c(c4)OCO5)cc23)c(OC)c1	7%
CC(=O)N1CCC[C@@]2(CCN(C(c3ccccc3)c3ccccc3)C2)C1	-1%
CC(N)=NCCCC[C@@H](N)C(=O)O	1%
O=C(O)CC1CCCc2ccccc2C1O (stereo not drawn)	-1%
CCC(C)C(=O)OC1C2CC3=C4CC(=O)OC(c5ccoc5)[C@]4(C)CCC3[C@@](C)(C2=O)C(CC(=O)OC)C1(C)C (stereo partly drawn)	6%
Cc1cnc(CNc2ccnc(-c3ccccc3Cl)n2)cn1	4%
O=S(=O)(c1ccccc1)N1CCC[C@@]2(CCN(Cc3nccs3)C2)C1	-61%
Cn1cccc1C(=O)N1CCC2(CCCN(c3ncccn3)C2)CC1	-40%[inhibitor]
